Screening data as filed in PubChem BioAssay.
Mtb MbtI inh – MbtI salicylate synthase inhibition; purified MbtI enzyme, fluorescence intensity read-out; AID 493033; P9WFX0; hit rate 0.89% among 100,000; inhibition, %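 (about 17 µg/mL by stock and volumes)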;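 active means above 50% in both replicates, above 80% if mildly self-fluorescent; inactive means the rest, strongly fluorescent compounds included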;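 further: 0% = mean of negative and 100% = mean of positive controls; one replicate is shown; some compounds called inactive have numbers as strong as hits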
PV pol inh – poliovirus RNA polymerase inhibition; % elongation, % (compound at 16.7 µg/mL); hit rate 0.66% among 150,000; AID 588519; P03300; poliovirus polymerase elongation, fluorescence polarization; active compounds read low; in the data active means % elongation below about 90%; further: some results filed as inactive read as strong as hits
Target sequence (P03300 1749-2209 limits assumed): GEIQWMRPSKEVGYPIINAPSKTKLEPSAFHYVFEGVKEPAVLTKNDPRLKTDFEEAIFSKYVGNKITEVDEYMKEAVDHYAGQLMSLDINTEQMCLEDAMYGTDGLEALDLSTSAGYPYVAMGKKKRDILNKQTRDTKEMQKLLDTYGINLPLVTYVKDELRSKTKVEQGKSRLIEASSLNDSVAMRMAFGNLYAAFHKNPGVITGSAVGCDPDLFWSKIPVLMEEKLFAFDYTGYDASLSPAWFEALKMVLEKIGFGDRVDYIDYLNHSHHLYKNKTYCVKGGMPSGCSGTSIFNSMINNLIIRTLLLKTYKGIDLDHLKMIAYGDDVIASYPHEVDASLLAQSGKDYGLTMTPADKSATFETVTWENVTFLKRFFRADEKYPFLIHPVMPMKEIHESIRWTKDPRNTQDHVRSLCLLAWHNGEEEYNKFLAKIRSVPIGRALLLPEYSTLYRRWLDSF
MenB inh – blocks the Mycobacterium tuberculosis MenB enzyme; P9WNP5; MenB enzyme assay, absorbance read-out; some hits fall short of the stated cut; inhibition, %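 (about 12 µg/mL by stock and volumes)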; hit rate 0.43% among 100,000; AID 540299;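 active means mean of two replicates above 30%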;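 further: 0% = no compound and 100% = wells with inactive enzyme; the first replicate is given; strong numbers were not always called active; inactives centre near -10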
Target sequence (P9WNP5 whole entry, looked up): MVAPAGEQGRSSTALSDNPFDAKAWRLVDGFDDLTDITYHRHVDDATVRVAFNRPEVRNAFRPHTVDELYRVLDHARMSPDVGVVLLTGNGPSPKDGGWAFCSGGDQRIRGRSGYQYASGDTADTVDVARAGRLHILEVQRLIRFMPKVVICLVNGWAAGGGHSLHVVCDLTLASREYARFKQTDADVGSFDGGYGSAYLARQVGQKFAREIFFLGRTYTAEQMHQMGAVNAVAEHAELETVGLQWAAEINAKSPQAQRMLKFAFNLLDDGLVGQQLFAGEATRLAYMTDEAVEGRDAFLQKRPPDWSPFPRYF
PV pol inh intensity – second read-out of PV pol inh, no call of its own (marks repeat the call); % elongation; measured here: total intensity read-out; formula for this scale not given here;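 total fluorescence in place of polarization; lower means less elongation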
Active calls of the source: *; . = not tested or not shown.

molecule	Mtb MbtI inh	PV pol inh	PV pol inh intensity	MenB inh
O=C(Cc1csc(NC(=O)c2cccs2)n1)NO	24	103	100	8
CN1CCN(C(=O)c2ccc(N)cc2)CC1	-2	103	106	11
CCn1c2ccccc2c2cc(NC(=O)CN3CCN(S(=O)(=O)c4ccc(OC)cc4)CC3)ccc21	-59	99	105	-2
COc1ccc2nc(SCC(=O)c3cc4c5c(c3)CC(=O)N5CCC4)[nH]c2c1	22	100	96	-1
N#Cc1ccccc1S(=O)(=O)N1CCNCC1	-4	105	108	-12
COC(CNC(=O)Cc1ccc(-n2c(=O)[nH]c3ccsc3c2=O)cc1)OC	-15	101	106	9
Cc1nc2sc(-c3ccccc3)cc2c(=O)n1-n1cccc1	14	105	98	.
O=S(=O)(CC(c1ccccc1)N1CCOCC1)c1ccc(Cl)cc1 (configuration not stated)	2	104	98	16
CCOC(=O)/C(=C(/C)Nc1ccc(F)cc1)C1CC(=O)N(c2cc(C)on2)C1=O (configuration not stated)	12	105	96	10
O=C(CCN1C(=O)/C(=C\C=C\c2ccco2)SC1=S)Nc1ccc(C(=O)O)c(O)c1	8	.	.	-55
Cc1ccc2nc(CN3NS(=O)(=O)c4ccccc4C3=O)cn2c1	22	.	.	-13
O=C(Nc1nc2nc(-c3ccccc3)cc(=O)n2[nH]1)C1CC1	0	103	105	10
CC(C)Cc1ccc(/C=C/C(=O)N2CCOCC2)cc1	.	97	91	-9
c1cc(SSc2ccsc2)cs1	51	104	97	-23
O=C(CSc1n[nH]c(=O)[nH]c1=O)N1CCCCCC1	-285	103	107	-30
NC(=S)N/N=C/c1cccc(Br)c1	20	99	102	12
CC(C)N1CC2=C(OC(N)=C(C#N)C2c2cccnc2)/C(=C/c2cccnc2)C1 (configuration not stated)	9	66	150	-81
NN1C(=O)c2cccc3cccc(c23)C1=O	9	102	95	-8
O=C(O)C1C2C=CC3(CN(C/C=C/c4ccccc4)C(=O)C13)O2 (configuration not stated)	-4	104	96	.
COc1ccc(O)c(C(=O)c2cnn3c(N)nnc3c2)c1	-9	84*	84*	4
O=C(CCNS(=O)(=O)c1ccccc1)Nc1ccc(Br)cc1C(=O)c1ccccc1	-210	105	100	-12
COc1ccc2[nH]c(=O)c(CN(Cc3cccs3)C(c3nnnn3C(C)(C)C)C(C)C)cc2c1 (configuration not stated)	8	102	102	-12
COc1c(OC)c2occc2c2oc(=O)ccc12	-1	98	102	-2
Cn1ccnc1SCC(=O)Nc1ccccc1	-4	104	103	25
CC1(C)CC(=O)C/C(=N/Nc2nc3ccccc3o2)C1	16	101	106	-17
COc1ccc(C(N)CC(=O)OC(C)C)cc1 (configuration not stated)	-12	104	108	-14
Fc1ccc(-c2nnn3c2nc(N2CCCC2)c2ccccc23)cc1	-2	99	103	8
Oc1ccccc1/C=N/N1CCCCC1	4	103	102	-13
COC(=O)N/N=C/C1=CCC2CC1C2(C)C (configuration not stated)	-12	102	106	-12
O=C(O)c1cn2c3c(cccc3c1=O)CC2	68	98	102	-25

Next part (three carried over from the part before).
molecule	Mtb MbtI inh	PV pol inh	PV pol inh intensity	MenB inh
Oc1ccccc1/C=N/N1CCCCC1	4	103	102	-13
COC(=O)N/N=C/C1=CCC2CC1C2(C)C (configuration not stated)	-12	102	106	-12
O=C(O)c1cn2c3c(cccc3c1=O)CC2	68	98	102	-25
CC(C)c1ccc(S(=O)(=O)NC2CC(C)(C)NC(C)(C)C2)cc1	.	108	111	-6
N#CC1=C(N)C2=C(N3CCOCC3)CCCC2C1(C#N)C#N (configuration not stated)	-11	105	109	-10
COC(CNC(=O)c1ccc2c(c1)N(Cc1cccc(Cl)c1)C(=O)c1ccccc1S2=O)OC (configuration not stated)	13	102	100	-8
Cn1c2ccccc2c2cnn(CC(=O)NCc3ccc4c(c3)OCO4)c(=O)c21	-3	102	98	6
CCc1ccc(NC(=O)Nc2ccc3c(c2)N(CC)C(=O)c2ccccc2S3)cc1	-10	103	105	-16
O=C(NCCCc1ccccc1)C1CCN(c2nnc(-n3cccc3)s2)CC1	-3	101	102	-33
COc1ccc(C2C(C(=O)Nc3ccc(C)c(F)c3)CC(=O)N2c2ccc(OC)cc2)cc1 (configuration not stated)	-7	102	107	-13
Cc1cc(SC(C)C(=O)NC(N)=O)nc2ccccc12 (configuration not stated)	50	110	108	13
O=C(O)c1c2c(nc3ccccc13)CCC(c1ccccc1)C2 (configuration not stated)	-5	101	106	-20
COCc1cc(=O)[nH]c(-c2cccc(C)c2)n1	12	103	106	7
O=C(CSc1ncn[nH]1)Nc1ccc(S(=O)(=O)N2CCCCC2)cc1	8	104	104	-22
CC(Sc1nnc(C2CC2)n1C1CC1)C(=O)c1ccc(NS(C)(=O)=O)cc1 (configuration not stated)	4	102	94	-11
CCOC(=O)c1oc2ccccc2c1Cn1nnc(-c2ccccc2)n1	22	106	112	-9
CC(C)(C)NC1CCCCC1NS(=O)(=O)c1ccccc1 (configuration not stated)	-7	103	106	2
CC(C)Oc1ccc(C(=O)NC(CC(=O)O)c2ccccc2)cc1 (configuration not stated)	4	103	100	-8
CC(C)N(Cc1ccccc1)S(=O)(=O)c1cccc(C#N)c1	4	98	99	-10
O=S(=O)(Cc1nc(-c2ccc(Cl)cc2)cs1)c1ccccn1	6	105	104	3
Nc1cc(-c2ccccc2)nn1S(=O)(=O)c1ccccc1	-5	104	105	-13
CN1OC(COC(=O)c2cc(Cl)cc(Cl)c2)CC12C1CC3CC(C1)CC2C3 (configuration not stated)	-9	102	108	0
c1ccc(C2CC(c3cccs3)n3nnnc3N2)cc1 (configuration not stated)	-1	101	106	-13
CCC(CC)NC(=O)CSc1ccccc1	3	102	103	-5
Oc1cccc(-c2nc3ccc4ccccc4c3c3c2CCCC3)c1	3	103	107	-17
C=CCCCCCCCCCCCC(O)CC(O)COC(C)=O (configuration not stated) (tested in a mixture with another compound)	-7	101	100	3
CCc1noc(C)c1C(=O)OCC(=O)NC12CC3CC(CC(C3)C1)C2	-6	105	103	8
CCN(CC(=O)NCc1cccs1)c1ncnc2sc3c(c12)CCCC3	-10	106	109	-12
COc1ccc(NS(=O)(=O)c2ccc3c(c2)N(C(C)=O)CC(C)O3)cc1OC (configuration not stated)	-25	99	101	-9
Cc1onc(-c2c(Cl)cccc2Cl)c1C(=O)O/N=C(\C#N)c1ccccc1	-8	104	104	-28
Cc1nn(-c2ccccc2)nc1CNC(=O)c1ncoc1-c1ccccc1	6	101	101	-3
O=C(Nc1ccc2c(c1)OCO2)C(=S)NCc1ccccc1	-3	106	104	-6
O=C(Nc1ccc2c(c1)OCO2)C(O)(c1ccccc1)c1ccccc1	-11	101	102	-17
Cc1ccc(C(=O)N/C(=C\c2cn(-c3ccccc3)nc2-c2ccccc2)C(=O)O)cc1	.	102	110	-11
CN(C)c1scc(-c2ccc(Cl)cc2)c1C#N	-4	106	107	7
COc1ccccc1C(=O)COC(=O)C1CCCCN1S(=O)(=O)c1ccccc1 (configuration not stated)	-11	104	107	-33
O=C(N/N=C/c1ccccc1)c1[nH]ncc1I	-2	101	103	-14
OCCNc1nc(NCCO)c2cnn(-c3ccccc3)c2n1	20	100	102	9
CC(=O)N1CCCc2cc(S(=O)(=O)NC3CCCCC3)ccc21	2	102	104	-26
CCOc1cc(C(=S)N2CCOCC2)ccc1OC	.	65*	71*	-21
COc1cccc(Oc2nc3ncn(Cc4ccccc4)c3c(=O)n2C)c1	-2	99	99	8
c1ccc(CCN2Cc3ccccc3C2)cc1	0	102	103	-6
CC1(C)OC(=O)C(=Cc2cccn2-c2ccc(S(N)(=O)=O)cc2)C(=O)O1	.	94	102	-187
CCOc1ccccc1NC(=O)CN(c1nccs1)S(=O)(=O)c1ccc(N)cc1	-4	102	104	-36
Cc1nn(-c2ccccc2)nc1CNS(=O)(=O)c1ccc2c(c1)OCCN2C	-21	104	116	-7
COc1ccc(CC2=C(O)c3ccccc3C(=O)C2=O)cc1	-2	97	92	-78
Cc1ccc2nc(CSc3nc4ccccc4c(=O)[nH]3)cc(=O)n2c1	106	106	111	-20
CCSC1=N/C(=C\c2cccc(F)c2)C(=O)S1	-2	102	107	-20
CC(Oc1ccc(Cl)cc1Cl)C(=O)NC1=NN(c2ccccc2)C(=O)C1 (configuration not stated)	4	100	99	-11
O=C1CC(Sc2nnc(-c3ccccc3O)o2)C(=O)N1c1ccccc1 (configuration not stated)	30	102	101	-29
O=C(O)c1cc(Cl)c[nH]1	9	102	105	-25
O=C(COC(=O)Cc1cccc(C(F)(F)F)c1)NC1CCCCC1	-7	101	105	.
S=C(NCc1ccccc1)N1CCCCCC1	-8	106	107	1
CCN(CC)C(=O)C1c2ccccc2C(=O)N2CCc3cc(OC)c(OC)cc3C12 (configuration not stated)	-7	100	105	-6
O=C1CC(c2cccc(C(F)(F)F)c2)C2=C(CCCC2=O)N1 (configuration not stated)	21	99	102	8
O=C(O)CCN1CCN(c2ccccn2)CC1	26	103	103	-30
CC(=O)N/N=C/c1cc(C(C)C)cc(/C=N/NC(C)=O)c1O	-2	80	135	-92
CCOC(=O)CCc1c(C)nc2c(c(C)nn2-c2ccccc2)c1C	11	98	97	13
O=C(Cc1cc(=O)[nH]c(=O)[nH]1)N1CCN(c2cccc(Cl)c2)CC1	-10	102	108	-18
Nc1c(C(=O)c2ccc3c(c2)OCCO3)oc2ccccc12	-44	107	113	-103
CC1=Nc2cc(C(=O)N(C)Cc3ccccc3)ccc2Sc2ccc(Cl)cc21	-13	103	105	-12
COCCN(C(=O)C1CC1)c1nnc(-c2cc(OC)c(OC)c(OC)c2)s1	88	99	102	8
Cc1c[nH]c(=S)c(C#N)c1	47	104	104	-40

(next part)
molecule	Mtb MbtI inh	PV pol inh	PV pol inh intensity	MenB inh
CCOc1ccc(Nc2nc(N)nc(CN3CC(C)CC(C)C3)n2)cc1 (configuration not stated)	3	107	100	6
CC(=O)Nc1nonc1NC1=CC(=O)CC(C)(C)C1	.	103	97	6
Cn1c(CNC(=O)c2ccco2)nnc1SCC(=O)c1ccccc1	-11	102	103	-4
CC(C)CC1N=C2c3ccccc3N=C(SCC(=O)NCCc3ccc(S(N)(=O)=O)cc3)N2C1=O (configuration not stated)	117	99	100	-10
Cc1ccc(S(=O)(=O)CCN2CCN(c3ccccc3)CC2)cc1	.	99	101	-7
CC(C)CCn1nc(C(=O)OCC(N)=O)c2ccccc2c1=O	-13	103	109	-25
CC(C)(C)c1cc(C(C)(C)C)n(-c2ccc(C(=O)NN)cc2)n1	-4	103	111	-11
COc1ccc(OCCCC(=O)O)cc1	-12	97	95	.
CCc1ccc(NS(=O)(=O)c2ccc3c(c2)OCCN3C)cc1	-1	100	102	-1
Cn1c2ccccc2c2nnc(SCCC(=O)O)nc21	1	103	104	-14
CCN(CC)S(=O)(=O)c1ccc(C(=O)NCCc2c[nH]c3ccccc23)cc1	-9	101	108	.
O=c1cc(-c2ccccc2)nc2nc(C(F)(F)F)[nH]n12	54	103	102	-12
Cc1ccc(C23CC4CC(CC(C(=O)NC5=NCCS5)(C4)C2)C3)cc1	-14	104	108	-17
Cc1ncc([N+](=O)[O-])n1CC(O)CCl (configuration not stated)	6	98	101	-3
Cc1nc2sc(C(=O)OCC(=O)c3cc(C)n(C)c3C)c(C)c2c(=O)[nH]1	87	97	96	8
CCS(=O)(=O)N1CC=C(c2c(C)n(CC(=O)N3CCCC3)c3ccccc23)CC1	-15	101	112	-10
CCCCNS(=O)(=O)c1ccc2c(c1)nc(SCC(=O)N1CCCC1)n2CCCC	-11	95	93	-37
COc1ccc(NC(=O)c2oc3ccccc3c2NC(=O)C2CCCCC2)cc1OC	1	101	102	-2
Cc1cc(OCn2ccc(C(=O)O)n2)ccc1Cl	1	64	112	-3
CC(C)(C)c1cc2nc(C(F)(F)F)cc(N3CCN(c4ncc(C(F)(F)F)cc4Cl)CC3)n2n1	16	103	103	-12
CCOC(=O)/C(C#N)=c1\s/c(=C\c2ccc(OC)cc2)c(=O)n1CC	10	.	.	-14
COC(=O)c1ccc(NC(=O)COC(=O)CSc2nc(C)cc(C)n2)cc1	0	92	110	-27
Cc1oc(-c2ccc(Cl)cc2)nc1Cn1c(SCc2ccc(F)cc2)nc2ccncc21	-3	100	104	1
CCCCSc1nnc(Cn2c(=O)sc3ccccc32)n1C	1	103	104	-9

An excerpt of these results, with two lines to a compound.
Results follow in this order: Mtb MbtI inh, PV pol inh, PV pol inh intensity, MenB inh
COc1ccc(OCCCC(=O)O)cc1
  -12, 97, 95, .
CCc1ccc(NS(=O)(=O)c2ccc3c(c2)OCCN3C)cc1
  -1, 100, 102, -1
Cn1c2ccccc2c2nnc(SCCC(=O)O)nc21
  1, 103, 104, -14
CCN(CC)S(=O)(=O)c1ccc(C(=O)NCCc2c[nH]c3ccccc23)cc1
  -9, 101, 108, .
